# Screens deposited in PubChem by National Center for Advancing Translational Sciences (NCATS).
# Menin-MLL FL inh: menin-MLL binding inhibition, fluorescein peptide; Fluorescence polarization, fluorescein-MLL peptide displacement from menin; AID 1766; 290,000 tested, under 10 active; FP activity change, % at 61.4 µM; inconclusive = falling polarisation curve, or a change in total fluorescence; inactive = total fluorescence flat and polarisation flat or rising; no compound was filed as active; the % refers to the polarisation; negative = inhibition;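 note: % of control where 0% means no effect; inhibitors lower the polarisation; unlabelled MLL peptide was the positive control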
# Starred values were filed as active, the others as inactive; ? = inconclusive; & = joins results of further samples; [ ] = dose if it differs, or a comment. An excerpt; rates above refer to the full screens.
SMILES,Menin-MLL FL inh
COc1cccc(Nc2ncc3nc(-c4cccs4)c(=O)n(C[C@H]4CCCO4)c3n2)c1,?
O=C(O)c1ccc2c(c1)C(=O)N([C@H](Cc1ccccc1)C(=O)O)C2=O,-1.7
Cc1cccc([C@H]2[C@@H]3C=CCC[C@@]3(C)C(=O)N2Cc2ccccc2)c1,6.2[94.6 µM]
O=C(c1csnn1)N1CCC[C@@]2(CCN(c3ncccn3)C2)C1,1.4
COc1ccc(C(=O)N2CCC3(CC2)CCN(c2ccccc2)CC3)cc1,-0.7
O=C(Oc1ccccc1)N1CCC2(CC1)CCN(c1cccc(-c3ccccc3)c1)CC2,0.1
CCC[C@H](NC(=O)[C@H](Cc1ccc(O[S+](=O)([O-])O)cc1)NC(=O)OC(C)(C)C)C(=O)NCC(=O)N[C@@H](Cc1c[nH]c2ccccc12)C(=O)N[C@@H](CCC)C(=O)N[C@@H](CC(=O)OCCc1ccccc1)C(=O)O,-0.4
NC(=O)C1c2ccccc2CCc2ccccc21,-3.1
Cc1ccccc1-c1cc(-n2ccnc2)ncn1,-5.8
Cc1ccc(NS(=O)(=O)c2cccc(C(=O)NN3CCOCC3)c2)cc1,-4.8
O=c1cnc2cnc(N3CCOCC3)nc2n1C[C@H]1CCCO1,-1.7
COCC#Cc1ccc(C2NC(C(=O)O)CCC2C)cc1 (stereo not given),-0.7[11.7 µM]
COC(=O)N1CCC2(CC1)CN(C(=O)Nc1ccc(OC)cc1)C2,-0.3
COC(=O)C1=C(C(=O)OC)[C@@H]2N(Cc3ccccc3)c3ccccc3[C@@]23C[C@@H](C(=O)OC)N(C(=O)NCc2ccccc2)C3=C1,0.8
O=c1cc(-c2ccccc2)oc2c1ccc1ccccc12,-2.9
O=S(=O)(Nc1cccc2cccnc12)c1ccccc1O,-1.6
COC(=O)C1=C(C)NC(C)=C([N+](=O)[O-])[C@@H]1c1ccccc1C(F)(F)F,-1.9&-0.2
COCC(=O)N1CCC[C@@]2(CCN(Cc3cc(C(F)(F)F)cc(C(F)(F)F)c3)C2)C1,-0.6
COC1C[C@@H](O[C@@H]2C(C)C(=O)OC(C)C(C)C(O)C(C)C(=O)[C@@]3(CO3)CC(C)C(OC3OC(C)CC(N(C)C)C3O)C2C)OC(C)[C@@H]1O (stereo not given in full),-0.3
COc1ccc(-n2c(=O)c(C)nc3cnc(N(C)C)nc32)cc1,9.0
Cc1ccc2c(c1)[nH]c1c(=O)n(CCC3=CCCCC3)cnc12,0.7
CN1CCN(c2cc3c(nn2)Oc2ccccc2N3C)CC1,2.0
CN(C)c1ncc(/C=C2/C(=O)NC(=S)N(C3CCCCC3)C2=O)cn1,19.2
Cc1cc(=O)oc2cc(NC(=O)[C@H](CCCCN)NC(=O)[C@H](CC3CCCCC3)NC(=O)OCC3c4ccccc4-c4ccccc43)ccc12,29.0
CN(C)c1ccc(CNCCC2CCOC(C)(C)C2)cc1 (stereo not given),3.4
SMILES,Menin-MLL FL inh
COc1nc(NC(C)=O)nc(C)c1Br,1.4
COc1cc(N(C)C)cc(CN(C)CCc2ccc([N+](=O)[O-])cc2)c1O,?
O=C(OCn1ncc(Br)c(Br)c1=O)c1c(F)cccc1F,8.4
CN(C)C(=O)c1ccc(-c2nc(-n3ccnc3)c3ccccc3n2)cc1,-2.8
COc1ccc([C@]23Cc4cc(OC)c(OC)cc4C(O2)C2=C(CCCC2=O)O3)cc1,14.4[11.7 µM]
CS(=O)(=O)NC(=O)CCC/C=C\C[C@H]1C(=O)C[C@@H](O)[C@@H]1/C=C/[C@@H](O)COc1ccccc1,1.9
O=C(c1ccncc1)N1CCC[C@@]2(CCN(C(c3ccccc3)c3ccccc3)C2)C1,-2.4
COc1ccc(-c2nc3cnc(N4CCNCC4)nc3n(Cc3cccs3)c2=O)cc1,-1.1
O=C(NCCN1C(=O)S/C(=C\c2cccs2)C1=O)c1ccc(=O)[nH]c1,5.2
COc1ccccc1N1CCN(C[C@@H](C(=O)NC(C)(C)C)c2ccccc2)CC1,5.3
O=C1C=CC(=O)C2=C1C1c3ccccc3C2c2ccccc21,-3.5
NCC1O[C@@H](OC2C(N)CC(N)C(O)C2O[C@@H]2OC(CO)C(O)C2O)C(N)C(O)C1O (stereo not given in full),0.0
COCCn1c(=O)c(CCc2ccccc2)nc2cnc(Nc3ccccc3)nc21,?
O=C(Nc1cccc(F)c1)N1CC[C@@]2(CCCNC2)C1,1.4
C[C@@H]1CC[C@]2(C(=O)O)CC[C@]3(C)C(=CCC4[C@@]5(C)C[C@@H](O)[C@H](O)[C@@](C)(CO)C5[C@H](O)C[C@]43C)C2[C@H]1C (stereo not given in full),-8.7
COc1ccc(/C=N/n2cnc3c([nH]c4ccccc43)c2=O)cc1COc1ccccn1,-5.1
COc1cccc([C@@H]2Oc3ccc(Br)cc3C(=O)[C@H]2OC(=O)Nc2ccc(C)c(Br)c2)c1,6.2
c1ccc2c(c1)SCc1c-2[nH]c2ccccc12,-11.0
CC(C)OC(=O)CCC/C=C\C[C@@H]1[C@@H](CC[C@@H](O)CCc2ccccc2)[C@H](O)C[C@@H]1O,2.4
Cc1ccccc1OCC(O)CNCCOc1ccc(C(N)=O)cc1 (stereo not given),-1.4
Cc1cccc(C)c1NC(=O)CN1CCCCCC1,-6.8
O=C(NC1CCCCCC1)c1c(O)c2cccc3c2n(c1=O)CCC3,0.0
COC(=O)N1CCC[C@@]2(CCN(c3ncccn3)C2)C1,-1.3
COCCN1C(=O)C(=O)/C(=C(/O)c2ccc(S(=O)(=O)N3CCOCC3)cc2)C1c1ccc(C(C)C)cc1 (stereo not given),-2.8
CS(=O)(=O)Nc1cccc(-c2ccc3ncnc(NCc4cccnc4)c3c2)c1,-7.4

# Five of the entries above in order of their number in Menin-MLL FL inh, rising:
SMILES,Menin-MLL FL inh
Cc1cccc(C)c1NC(=O)CN1CCCCCC1,-6.8
COCCN1C(=O)C(=O)/C(=C(/O)c2ccc(S(=O)(=O)N3CCOCC3)cc2)C1c1ccc(C(C)C)cc1 (stereo not given),-2.8
COc1ccc(-c2nc3cnc(N4CCNCC4)nc3n(Cc3cccs3)c2=O)cc1,-1.1
O=C(NC1CCCCCC1)c1c(O)c2cccc3c2n(c1=O)CCC3,0.0
CC(C)OC(=O)CCC/C=C\C[C@@H]1[C@@H](CC[C@@H](O)CCc2ccccc2)[C@H](O)C[C@@H]1O,2.4

# Returning to the listing, repeating the 5 entries before the break.
SMILES,Menin-MLL FL inh
Cc1cccc(C)c1NC(=O)CN1CCCCCC1,-6.8
O=C(NC1CCCCCC1)c1c(O)c2cccc3c2n(c1=O)CCC3,0.0
COC(=O)N1CCC[C@@]2(CCN(c3ncccn3)C2)C1,-1.3
COCCN1C(=O)C(=O)/C(=C(/O)c2ccc(S(=O)(=O)N3CCOCC3)cc2)C1c1ccc(C(C)C)cc1 (stereo not given),-2.8
CS(=O)(=O)Nc1cccc(-c2ccc3ncnc(NCc4cccnc4)c3c2)c1,-7.4
COc1ccc(C2/C=C\[C@H](O[Si](C)(C)C(C)(C)C)[C@H](C(C)C)CC(=O)N2Cc2ccccc2)cc1 (stereo not given in full),-0.1
COC(=O)CCCC1=CC2=CC(=O)C(C)(OC(=O)c3cccs3)C(=O)C2=CO1 (stereo not given),?
COc1cccc(-c2nc(N(C)C)c3ccccc3n2)c1,4.0
CC(=O)OCC(=O)[C@@]1(O)CC[C@@H]2[C@H]3CCC4=CC(=O)CC[C@]4(C)[C@]3(F)[C@@H](O)C[C@@]21C,-4.6[24.8 µM]
COc1cccc(-c2nccc(NCCc3c[nH]c4ccc(OC)cc34)n2)c1,-0.1
O=C(NC1CCCCC1)c1ccc(Cl)c(NC(=O)c2ccccc2F)c1,-1.0
O=C(O)CCC(=O)C(=O)O,2.7
COc1ccc(Oc2ncc3nc(-c4cccs4)c(=O)n(C)c3n2)cc1,0.0
CCCCNc1ccc(S(N)(=O)=O)cc1[N+](=O)[O-],0.7
CC1(O)CCC(C(C)(C)O)CC1 (stereo not given),-0.5&-21.5&-4.2
COc1cc(-c2coc3cc(O[C@H]4OC(CO)C(O)C(O)C4O)c(OC)c(O)c3c2=O)cc(O)c1OC (stereo not given in full),-0.5
C/C(N)=C(/C#N)C(=O)COC(=O)c1cc(-c2ccccc2)nc2ccc(Br)cc12,-1.2
O=c1c(CCc2ccccc2)nc2cnc(Nc3ccccc3)nc2n1C[C@H]1CCCO1,?
CO[C@@H]1C=CO[C@]2(C)Oc3c(C)c(O)c4c(O)c(c(C=NN5CCN(C)CC5)c(O)c4c3C2=O)NC(=O)C(C)=CC=C[C@H](C)[C@H](O)[C@H](C)[C@H](O)[C@H](C)[C@H](OC(C)=O)[C@H]1C,5.1[24.8 µM]
N#CCCn1c(=O)c(-c2cccc(C#N)c2)nc2cnc(Oc3ccccc3)nc21,-9.2
COc1ccc(C(=O)N2CCC[C@@]3(CCN(Cc4ccccc4OC)C3)C2)cc1,-1.5
CCCn1c(=O)c2[nH]c(-c3ccc(OCC(=O)NCCN)cc3)nc2n(CCC)c1=O,-2.8
N#CCCn1c(=O)c(-c2ccccc2)nc2cnc(Oc3cccc(Cl)c3)nc21,0.5
CC1(C)CC(=O)C2=C(C1)OC1=C(C(=O)CC(C)(C)C1)C2(C)C,1.9
COc1cc2c(cc1O)C(Cc1ccc(O)cc1)N(C)CC2 (stereo not given),-1.7
S=C(NC1CCCCC1)N1CCC([C@H]2C=NC=N2)CC1,-5.2[24.8 µM]
COc1cc(CNc2ncnc3ccc(-c4c(C)noc4C)cc23)cc(OC)c1OC,-6.2
COC(=O)[C@@H]1C[C@@]2(O)[C@@H](O)[C@@H](O)[C@@H](O)C[C@H]2N1Cc1cc(F)ccc1F,-0.9
CO/N=C(\C(=O)N[C@@H]1C(=O)N2C(C(=O)O)=C(COC(C)=O)CS[C@H]12)c1csc(N)n1,6.8
CS(=O)(=O)c1ccc([C@H](O)[C@H](CO)NC(=O)C(Cl)Cl)cc1,-7.1[24.8 µM]
SMILES,Menin-MLL FL inh
N[C@H](CCCP(=O)(O)O)C(=O)O,-1.4&-3.1
Cc1ccc(C(=O)CCC(=O)O)cc1,2.7
COc1ccc2c(c1)O[C@H](c1ccc3c(c1)OCO3)[C@@H](OC(=O)NCc1ccco1)C2=O,7.0
O=C(Oc1ccccc1)N1CCC2(CC1)CCN(c1ccncc1)CC2,2.0
Cc1cc(C)c2nc(NC3=NCN(CCN4CCOCC4)CN3)nc(C)c2c1,2.2
COc1ccc(Oc2ncc3nc(-c4cccc(C#N)c4)c(=O)n(Cc4cccc(OC)c4)c3n2)cc1,-1.7
C/C=C/OC(=O)NC(c1ccccc1)[C@]1(C(C)=O)CCOC1=O (stereo not given in full),-22.3[11.7 µM]
Cn1sc(=O)n(Cc2ccccc2)c1=O,-5.0
Cc1cnc(CNc2ncncc2-c2ccccc2C)cn1,-0.1
COCCNc1ccnc(-c2cccc(NS(C)(=O)=O)c2)n1,3.1
COc1ccc(-c2nc3cnc(Oc4cccc(Cl)c4)nc3n(CCC#N)c2=O)cc1,0.2
COc1cccc(Nc2ncc3nc(CCc4ccccc4)c(=O)n(C)c3n2)c1,?
NN=C1c2cc([N+](=O)[O-])ccc2-c2ccc([N+](=O)[O-])cc21,-0.2
CS(=O)(=O)Nc1c(O)ccc2c1CCC[C@H]2C1=NCCN1,?
CCC(=O)N1C(=O)C2(Nc3ccccc3N2)c2ccccc21,-1.0
Cc1c2cnn(CC(=O)Nc3c(F)c(F)cc(F)c3F)c(=O)c2c(C)n1Cc1ccc(F)cc1,-4.0
c1ccc(Oc2nc(NC3CCCCC3)c3[nH]cnc3n2)cc1,0.8
FC(F)(F)c1cc(CN2CC[C@@]3(CCCNC3)C2)cc(C(F)(F)F)c1,-0.2
COc1cccc(Cn2c(=O)c(CCc3ccccc3)nc3cnc(N4CCOCC4)nc32)c1,3.6
CC[C@H](C)[C@H](NC(=O)[C@@H](N)CCC(=O)O)C(=O)N[C@@H](CC(C)C)C(=O)N[C@@H](CC(=O)O)C(=O)N[C@H](C(=O)N1CCC[C@H]1C(=O)N[C@@H](CO)C(=O)N[C@H](C(=O)O)[C@@H](C)O)C(C)C,-1.9
Cn1c(SCCC#N)nnc1-c1ccc(F)cc1,-0.8
O=C(NCc1cccc2ccccc12)[C@H]1C[C@@H]1[C@H](NP(=O)(c1ccccc1)c1ccccc1)c1ccccc1,7.8
CC(N)CCCC(C)(C)O (stereo not given),-1.7
CN1CCCC2(CCN(C(=O)c3cccc(F)c3)CC2)C1,-1.2
COC(=O)[C@@]1(Cc2ccccc2)[C@H]2c3cc(C(=O)N(C)C)n(Cc4ccsc4Br)c3C[C@H]2CN1C(=O)c1ccccc1,9.3
SMILES,Menin-MLL FL inh
O=C(c1ccncc1)N1CCC[C@@]2(CCN(c3cccc(-c4ccccc4)c3)C2)C1,10.0
NC(=O)c1ncn(C2OC(CO)C(O)C2O)c1N (stereo not given),3.3&-0.8
CCCCCCCCCC[Si](C)(C)CCC(=O)NC(Cc1ccc(C)cc1)c1ccccc1 (stereo not given),0.7
C[C@H]1C2=C3C(CC[C@H]4C(OCc5ccc(F)cc5C(F)(F)F)OC[C@](C)([C@@H]34)N(C(=O)OC(C)(C)C)C2)C2COC(=O)OCC21 (stereo not given in full),-0.9
COc1cccc([C@@H]2Oc3ccc(OC)cc3C(=O)[C@H]2OC(=O)NCCc2ccc(OC)c(OC)c2)c1,16.5
C/C(=C1/C(=O)N(c2ccc([N+](=O)[O-])cc2)N=C1c1ccccc1)N(C)C,2.4
CC(C)NC(=O)N1CCCC2(CCN(C(=O)c3cc(C(F)(F)F)cc(C(F)(F)F)c3)CC2)C1,-1.1
CC1(C)CCC[C@@](C)([C@H]2CC[C@]3(C)[C@@H]2[C@H](O)C[C@@H]2[C@@]4(C)CC[C@H](O)C(C)(C)[C@@H]4[C@@H](O)C[C@]23C)O1,1.7
C/C(CCC(=O)OC[C@@H]1O[C@H](C#Cc2ccccc2)C=C[C@@H]1Oc1ccc(C)cc1)=N/O[C@@H](C)c1cn([C@H](CO)Cc2ccccc2)nn1,0.3&-1.6[11.7 µM]
